Screening results deposited in PubChem by several laboratories.
Arbovirus anti: antivirals against arbovirus infection, primary screen, cell-based, full library, 10K replicate subset | arbovirus infection cell-based antiviral screen | inhibition, % at 10 µM | 200,000 tested, 0.37% active | AID 1251, 2008;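 active = inhibition from about 30%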;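 also: bluetongue infection of BSR cells; cell survival read as ATP light after 72 h; 0% = infected wells without compound and 100% = uninfected wells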
Mtb growth: M. tuberculosis H37Rv growth inhibitors, H37Rv strain (AID 1626); 220,000 tested, 0.95% active; M. tuberculosis H37Rv growth inhibition; higher % means a stronger effect; inhibition, % at 10 µM; hits with a dose series show IC50 in µM;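 active = confirmed in a dose series; inconclusive = inhibition above 80% but not taken into the dose series; inactive = below 80% or under 30% at every dose of the series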;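 also: bacteria incubated seven days before Alamar blue readout; 0% = bacteria only wells and 100% = bacteria with antibiotic wells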
YopH inh: YopH tyrosine phosphatase inhibitors, primary screen, biochemical, fluorescence Ex485/Em525; YopH tyrosine phosphatase [Yersinia enterocolitica]; 140,000 tested, 0.16% active; inhibition, %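 (about 10 µM by stock and volumes)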; AID 898, 2007;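 active = inhibition of 50% or more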;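 also: controls were vehicle for no effect and minimum signal wells for full effect; inactives centre near -20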
RecA splice inh: Mtb RecA intein splicing inhibitors, primary screen, biochemical, fluorescence, HTS | Protein RecA (Mycobacterium tuberculosis (strain ATCC 25618 / H37Rv)), P9WHJ3 | cell-free RecA intein splicing | 290,000 tested, 0.75% active | inhibition, %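 (about 9 µM by stock and volumes)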; in the data active = inhibition above about 30%; inconclusive = no clear call, values can overlap the other calls;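 also: 0% = vehicle wells and 100% = reference inhibitor control wells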
Target sequence (P9WHJ3 whole entry, looked up, canonical isoform): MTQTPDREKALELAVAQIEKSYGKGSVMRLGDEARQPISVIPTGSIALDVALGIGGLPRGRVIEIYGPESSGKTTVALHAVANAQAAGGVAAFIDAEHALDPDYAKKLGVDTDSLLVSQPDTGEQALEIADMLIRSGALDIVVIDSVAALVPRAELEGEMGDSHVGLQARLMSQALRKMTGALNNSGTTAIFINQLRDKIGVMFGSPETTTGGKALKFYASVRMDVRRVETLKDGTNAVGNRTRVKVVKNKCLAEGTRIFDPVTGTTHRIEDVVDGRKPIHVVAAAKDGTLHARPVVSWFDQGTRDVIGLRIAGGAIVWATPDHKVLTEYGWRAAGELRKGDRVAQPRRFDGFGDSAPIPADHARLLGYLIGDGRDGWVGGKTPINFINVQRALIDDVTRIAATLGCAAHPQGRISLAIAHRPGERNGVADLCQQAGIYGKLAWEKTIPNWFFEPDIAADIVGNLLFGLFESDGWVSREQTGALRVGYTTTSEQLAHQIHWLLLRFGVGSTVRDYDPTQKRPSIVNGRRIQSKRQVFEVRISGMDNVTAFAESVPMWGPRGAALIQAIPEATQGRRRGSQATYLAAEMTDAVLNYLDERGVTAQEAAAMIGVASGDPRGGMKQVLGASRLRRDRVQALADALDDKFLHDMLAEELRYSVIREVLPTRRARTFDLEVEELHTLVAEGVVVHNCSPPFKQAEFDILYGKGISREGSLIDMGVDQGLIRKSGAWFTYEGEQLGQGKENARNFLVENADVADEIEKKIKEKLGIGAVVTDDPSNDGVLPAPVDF
Mtb betalactam: beta-lactam sensitization of Mtb H37Rv, H37Rv. M. tuberculosis H37Rv growth with meropenem, percent inhibition; hits of this screen are not shown here. inhibition, % at 25 µM. 330,000 tested, 0.27% active;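 active = about 74% or more and at least 40 points above the plate without the antibiotic, then above 30% in a dose series; inconclusive = first-round hits that could not be retested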;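 also: growth measured after seven days incubation then overnight dye step; 0% = bacteria only wells and 100% = bacteria with antibiotic; twin plates without the antibiotic show which effects depend on it; some results filed as inactive read as strong as hits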
Arbovirus anti repeat: second read-out of Arbovirus anti, no call of its own (marks repeat the call); inhibition, %; measured here: 10K subset replicate screen; many hits read low in the repeat;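 first of two repeat runs on a subset; 0% = infected and 100% = uninfected wells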
Starred values were filed as active, the others as inactive; u = inconclusive; x = no result given.

SMILES	Arbovirus anti	Mtb growth	YopH inh	RecA splice inh	Mtb betalactam	others
CCOC(=O)N1CCN(Cc2ccc3ccccc3c2)CC1	x	x	x	-1.5	-1.8
COc1ccc(-c2oc3ccc(-c4cc(OC)c(OC)c(OC)c4)cc3c2-c2ccc(OC)nc2)cc1	x	x	x	-1.3	96.2
Cc1ccc(S(=O)(=O)N2CCN(C3CC4CCC3C4)CC2)cc1 (configuration not stated)	x	x	x	-2.5	-4.4
Cn1cccc1CC(=O)N/N=C/C(Cl)=C/c1ccccc1	8.0	-3.0%	-14.9	3.1	3.5
S=C(NCc1ccccn1)Nc1ccccc1	-3.8	-2.2%	-20.7	-5.2	-6.7
CC1(C)CC(=O)C2=C(C1)OC(N)=C(C#N)C2c1ccc(OC(=O)N2CCOCC2)cc1 (configuration not stated)	2.1	6.2%	-32.1	0.1	-4.9	Arbovirus anti repeat=0.9
CN(C)CC/C=C1/c2ccccc2CS(=O)(=O)c2ccccc21	x	x	x	-1.8	-13.2
Cc1cc(C=O)c(C)n1-c1ccc(Oc2ccc([N+](=O)[O-])cn2)cc1	-23.7	5.2%	-19.8	-2.8	11.6
COc1cccc(NC(=S)N2CCN(c3ccccn3)CC2)c1	6.0	3.1%	-36.5	-1.1	6.1
O=C(NCc1ccccc1)c1ccc2nccnc2c1	-0.5	-10.9%	-3.6	0.4	-0.4
CCC(C)N(C(=O)COc1ccc(-c2nnco2)cc1)C1CCS(=O)(=O)C1 (configuration not stated)	x	x	x	1.6	-6.0
Cc1ccc(-c2nc3cc(Cl)ccc3o2)cc1	0.7	-0.7%	-15.4	x	5.8
Cc1cc(NC(=O)c2sccc2C)n(-c2cccc(Cl)c2)n1	-2.3	-5.0%	-18.0	3.3	-13.5
COc1cccc([C@@H]2Oc3ccc(Br)cc3C(=O)[C@H]2OC(=O)NC2CCCC2)c1	-17.1	-11.1%	-13.3	x	-5.2
COc1cc(/C=N/O)ccc1Oc1cnccn1	x	x	x	-3.4	-6.8
CCN(CC)CCN1C(=O)C(=O)/C(=C(/O)c2c(C)[nH]c(C(=O)OC)c2C)C1c1ccccc1 (configuration not stated)	0.9	-11.0%	-26.6	-8.1	-0.4
COc1ccc(CNC(=O)[C@H](Cc2c[nH]c3ccccc23)NC(=O)[C@@H]2Cc3ccccc3CN2)cc1	x	x	x	7.8	3.9
c1ccc(-n2nnnc2Oc2ccc(-n3ccnc3)cc2)cc1	0.1	-3.6%	-37.9	8.0	-1.8
O=C(NCc1ccccn1)/C(=N/O)c1ccccc1	1.3	1.6%	-12.0	-0.4	-0.7
CC(=O)Nc1cccc(NC(=S)Nc2cccc(Cl)c2C)c1	0.2	-0.1%	x	-0.4	-3.7
CCC1CCCCN1CCNC(=O)CNS(=O)(=O)c1ccc2nc(C)sc2c1 (configuration not stated)	15.1	-11.8%	-17.8	-0.2	-3.2
Cc1ccc(-n2ncc3c(=O)n(CC(=O)NC4CCCCC4)cnc32)cc1	0.9	-3.0%	1.0	-0.3	-6.8
CCOC(=O)C1=C(C)N(CCCCCC(=O)O)C(=O)NC1c1ccc(Cl)cc1 (configuration not stated)	x	x	x	0.1	-1.9
COc1ccc(CN(C)Cc2nc3scc(-c4ccccc4)c3c(=O)[nH]2)cc1OC	-6.1	3.9%	-14.3	7.1	5.0
CC(=O)Nc1ccc(NC(=O)C(NS(=O)(=O)c2cccc3nsnc23)C(C)C)cc1 (configuration not stated)	x	x	x	3.7	-10.3
CCOC(=O)c1c(NC(=O)CN2C(=O)NC3(CCCCC3C)C2=O)sc(C)c1CC (configuration not stated)	x	x	x	-1.9	-7.3
Cc1cccc(NC(=O)c2cc([N+](=O)[O-])ccc2NCC2CCCO2)n1 (configuration not stated)	-1.6	12.6%	x	0.9	-7.4
COc1ccc(C)cc1S(=O)(=O)Nc1cc(Cl)ccc1Cl	-3.4	3.1%	28.2	-1.6	1.6
O=C(COC(=O)Cc1ccccc1)NCCNC(=O)COC(=O)Cc1ccccc1	x	x	x	2.2	-11.1
COCCCNCC(O)C(F)(F)F (configuration not stated)	7.4	-0.2%	x	2.2	-12.1
O=C(NCc1csc2ccccc12)Nc1cc(Cl)cc(Cl)c1	x	-7.1%	x	2.2	-4.2
CN(C)CCCNC(=O)c1cc(Br)ccc1O	x	-6.5%	x	0.8	-3.6
Cc1nc2c(ccc3nc(NC(=O)C(c4ccccc4)c4ccccc4)sc32)s1	9.0	66.4%	-27.1	9.5	14.5
CCCc1cc(-c2nc(-c3ccc(Cl)cc3)cs2)ccn1	-5.1	u	-29.4	24.6	x
COc1ccc(C(=O)Nc2ccccc2C)cc1S(=O)(=O)N1CCOCC1	x	x	x	2.1	-3.5
CC1CCN(C(=S)NC(=O)c2ccco2)CC1	x	x	x	1.2	7.2
CCCS(=O)(=O)N1CCC(C(=O)NC2CCC(C)CC2)CC1 (configuration not stated)	0.1	-3.1%	-38.8	0.6	-7.1
O=C(Nc1ccc(S(=O)(=O)NCC2CCCO2)cc1)c1ccc(F)cc1 (configuration not stated)	x	x	x	-1.4	0.4
COc1cc(CNCc2cccs2)ccc1OCc1cccs1	5.3	-5.4%	-55.2	-1.2	6.2
CCNC(=O)CN(c1ccc(C)cc1)S(=O)(=O)c1ccc(SC)cc1	1.0	-3.2%	-20.3	3.8	2.4
COC(=O)c1ccc(C(c2c(C)[nH][nH]c2=O)c2c(C)[nH][nH]c2=O)cc1	x	x	x	94.6*	5.3
O=C(NNS(=O)(=O)c1ccc(Br)cc1)c1sccc1-n1cccc1	13.1	1.3%	x	x	-6.2
Cc1cc(C(=O)COc2ccc(C#N)cc2)c(C)n1-c1ccc2c(c1)OCO2	-1.5	8.8%	-34.3	1.7	-6.5
O=C(COc1cccc(C(F)(F)F)c1)Nc1cccnc1	x	x	x	-4.3	6.7
COc1ccccc1CC(=O)NC1CCCc2ccccc21 (configuration not stated)	-0.6	1.9%	x	0.8	2.8
CCCCCCN1CC(C(=O)OCC)C(=O)C1=O (configuration not stated)	-0.6	2.5%	-18.2	-0.5	-14.4
N#CC1=C(N)C(C#N)(C#N)C(c2cccnc2)C2CN(C(=O)OCc3ccccc3)CC=C12 (configuration not stated)	-7.5	2.9%	-12.8	45.4*	-10.4
CCCCSc1nnc(CSc2nc3nc(C)cc(C)n3n2)o1	6.7	8.3%	-4.1	-2.0	-7.3

Reprinted from the part before: 7 compounds, followed by the next part.
SMILES	Arbovirus anti	Mtb growth	YopH inh	RecA splice inh	Mtb betalactam	others
O=C(NNS(=O)(=O)c1ccc(Br)cc1)c1sccc1-n1cccc1	13.1	1.3%	x	x	-6.2
Cc1cc(C(=O)COc2ccc(C#N)cc2)c(C)n1-c1ccc2c(c1)OCO2	-1.5	8.8%	-34.3	1.7	-6.5
O=C(COc1cccc(C(F)(F)F)c1)Nc1cccnc1	x	x	x	-4.3	6.7
COc1ccccc1CC(=O)NC1CCCc2ccccc21 (configuration not stated)	-0.6	1.9%	x	0.8	2.8
CCCCCCN1CC(C(=O)OCC)C(=O)C1=O (configuration not stated)	-0.6	2.5%	-18.2	-0.5	-14.4
N#CC1=C(N)C(C#N)(C#N)C(c2cccnc2)C2CN(C(=O)OCc3ccccc3)CC=C12 (configuration not stated)	-7.5	2.9%	-12.8	45.4*	-10.4
CCCCSc1nnc(CSc2nc3nc(C)cc(C)n3n2)o1	6.7	8.3%	-4.1	-2.0	-7.3
Cc1ccc(CNC(=O)CSc2n[nH]c(N)n2)cc1	5.2	3.2%	-27.6	-0.5	-1.7
Cc1nc(C)c(C(=O)O)s1	x	-14.7%	x	-1.7	-7.7
CC1CC(C)(C)NC(=S)N1CCC(=O)N1CCc2ccccc21 (configuration not stated)	3.6	-5.6%	x	-0.7	-7.3
O=C(O)Cc1c(O)ccc2ccccc12	8.0	12.0%	-19.0	-6.2	6.9
O=C(NC1CCCCCC1)c1ccc(CS(=O)(=O)Cc2ccc(F)cc2)o1	x	x	x	-0.4	-8.3
CCOC(=O)N1CCN(C(=O)c2cc3cc(OC)c(OC)cc3[nH]2)CC1	x	x	x	-3.9	-1.9
COc1ccc(OC(=O)CCc2c[nH]c3ccccc23)cc1	7.6	18.2µM*	x	4.3	99.7
O=C1c2ccccc2-c2nnc(-c3ccc(F)cc3)cc21	-18.1	1.7%	x	x	1.4
O=S(=O)(c1ccccc1Cl)N1CCC(O)(c2cccnc2)CC1	-4.4	-5.0%	x	-1.8	-1.5
NC(=O)CN1CCN(c2nc(-c3ccc(F)cc3)cs2)CC1	15.2	-4.5%	-13.1	-0.9	2.5
CCN(CC)C(=O)CNC(=S)N(CCCN1CCOCC1)Cc1cccs1	0.4	2.4%	-20.5	-6.3	3.9
COc1ccc(CC(=O)Nc2cccc(-c3ccc4nncn4n3)c2)cc1OC	-1.7	-0.3%	x	1.5	0.2
CCOC(=O)CNC(=O)CNC(=O)c1nn(-c2ccc(OC)c(Cl)c2)c(=O)c2ccccc12	0.7	-0.8%	x	-0.3	96.3
O=C(CC(=O)N/N=C/c1ccc(F)cc1)N/N=C/c1ccc(F)cc1	x	1.8%	x	-1.2	1.1
COc1ccc(CCN=C(NS(=O)(=O)c2ccc(Cl)cc2)c2ccccc2)cc1	1.1	9.4%	x	5.7	-5.0
O=C(Nc1cccc(Cl)c1)Nn1cnnc1	x	-6.9%	x	1.9	-6.1
COc1ccccc1C1C(C#N)=C(N)Oc2cc(C)n(Cc3ccccn3)c(=O)c21 (configuration not stated)	-0.7	1.3%	-12.7	-2.6	0.6
CCN(CC(=O)Nc1ccc(NC(C)=O)cc1)CC(=O)Nc1ccc(Cl)c(Cl)c1	x	x	x	-0.7	-2.9
Cc1ccccc1CC(=O)Nc1ccon1	x	x	x	-0.5	-2.2
O=C(COc1ccc2ccc(=O)oc2c1)N1C[C@H]2C[C@@H](C1)c1cccc(=O)n1C2	x	x	x	-6.6	-0.9
CCOc1ccc(C(=O)Nc2ccc(S(=O)(=O)N3CCN(C)CC3)cc2)cc1	x	x	x	0.7	2.7
Cc1ccc2ncnc(Oc3ncccc3[N+](=O)[O-])c2c1	x	-12.6%	x	x	9.7
Cc1nc(CCNC(=O)C2CCC(=O)N(Cc3cccc(F)c3)C2)sc1C (configuration not stated)	x	x	x	-3.2	-1.2
Cc1cc(C(=O)N2CCCC(Nc3ccc(C(C)C)cc3)C2)nn1C (configuration not stated)	x	x	x	-3.6	1.4
Cc1oc2ccc(NS(=O)(=O)c3cccc4cccnc34)cc2c1C(=O)OC(C)C	4.8	35.0%	-26.2	1.1	6.1
C(=N\n1cnnc1)/c1ccc(OCc2ccccc2)cc1	-13.1	7.3%	-12.7	2.3	94.6
CCCCCCCCn1c(N2CCN(c3cccc(Cl)c3)CC2)nc2c1c(=O)[nH]c(=O)n2C	6.7	-3.2%	-20.6	-2.7	3.7
NC(=O)C1CCN(C(=O)CCSCc2ccc(Cl)c(Cl)c2)CC1	x	x	x	-1.4	1.2
Cc1ccc(N2CC(C(=O)N3CCC(C(=O)Nc4cccc(Br)c4)CC3)CC2=O)cc1 (configuration not stated)	x	x	x	-4.4	5.3
COc1ccc(/C=C/C(=O)Nc2ccc(OC)nc2)cc1	1.3	39.9%	-34.3	x	92.1
C/C(=N\NC(=O)c1cccc(S(=O)(=O)Nc2ccccc2Cl)c1)c1ccc(-n2ccnc2)cc1	9.4	-14.0%	-19.1	1.9	0.2
CSc1nsc(SC)c1C(=O)N1CCN(S(=O)(=O)c2ccc(C)cc2)C1C(C)C (configuration not stated)	-9.2	0.9%	0.2	8.9	-1.6
CN1CCN(C(=S)c2ccc(Cl)cc2)CC1	0.1	-0.5%	-22.5	4.1	-15.1
O=C(CC1C(=O)NCCN1Cc1ccoc1)NCCc1ccc(Cl)cc1 (configuration not stated)	3.8	-1.0%	x	5.9	-3.3
CCn1c(C(=O)O)c(CC(=O)Nc2ccccc2OC)c2ccccc21	x	x	x	3.7	-3.4
CC(C(=O)NCCN1CCOCC1)(c1ccccc1)c1ccccc1	-2.2	2.8%	x	1.1	-2.2
OC1(c2ccc(F)cc2)CSC(=Nc2cccnc2)N1Cc1ccco1 (configuration not stated)	4.5	12.7%	x	-1.0	1.4
COCCN(CC1CCCN(C2Cc3ccccc3C2)C1)C(=O)CSC (configuration not stated)	x	x	x	5.9	-2.2
CC(C)(C)c1ccc(C(=O)NNC(=S)NCc2ccco2)cc1	x	-2.2%	x	6.4	-4.7
COc1ccc(NC(=O)c2nc3nc(C)cc(C(F)F)n3n2)cc1OC	5.3	-4.3%	-7.6	0.1	-7.1	Arbovirus anti repeat=-1.1

Not all compounds are listed. The share of hits here may be higher or lower than overall.
